Screens (PubChem)
Mtb MenB inh – M. tuberculosis MenB inhibitors, primary screen, biochemical, absorbance | 1,4-dihydroxy-2-naphthoyl-CoA synthase (Mycobacterium tuberculosis (strain ATCC 25618 / … | MenB enzyme assay, absorbance read-out; some hits fall short of the stated cut | inhibition, %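 (about 12 µg/mL by stock and volumes)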 | hit rate 0.43% among 100,000 | AID 540299, 2011;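 active means mean of two replicates above 30%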;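 further: 0% = no compound and 100% = wells with inactive enzyme; the first replicate is given; strong numbers were not always called active; inactives centre near -10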
Target sequence (P9WNP5 whole entry, looked up): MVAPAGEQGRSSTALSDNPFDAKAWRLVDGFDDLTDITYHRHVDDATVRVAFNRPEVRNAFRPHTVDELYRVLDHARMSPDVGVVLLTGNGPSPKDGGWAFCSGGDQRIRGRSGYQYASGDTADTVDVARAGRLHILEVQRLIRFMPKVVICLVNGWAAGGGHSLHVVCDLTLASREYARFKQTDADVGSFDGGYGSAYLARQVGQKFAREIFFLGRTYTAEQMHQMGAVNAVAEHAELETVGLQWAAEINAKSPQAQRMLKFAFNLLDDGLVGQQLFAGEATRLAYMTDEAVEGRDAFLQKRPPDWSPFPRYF
Polio RdRp inh – poliovirus RdRp elongation inhibitors, primary screen, biochemical, fluorescence polarization, total intensity; % elongation, % (compound at 16.7 µg/mL); hit rate 0.66% among 150,000; AID 588519, 2011; poliovirus polymerase elongation; stronger effect = lower value; in the data active means % elongation below about 90%; further: some results filed as inactive read as strong as hits
MbtI inh – MbtI salicylate synthase inhibitors, primary screen, biochemical, fluorescence intensity; hit rate 0.89% among 100,000; P9WFX0; inhibition, %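 (about 17 µg/mL by stock and volumes)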; purified MbtI enzyme, fluorescence intensity read-out;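 active means above 50% in both replicates, above 80% if mildly self-fluorescent; inactive means the rest, strongly fluorescent compounds included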;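 further: 0% = mean of negative and 100% = mean of positive controls; one replicate is shown; some compounds called inactive have numbers as strong as hits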
Target sequence (P9WFX0 whole entry, looked up): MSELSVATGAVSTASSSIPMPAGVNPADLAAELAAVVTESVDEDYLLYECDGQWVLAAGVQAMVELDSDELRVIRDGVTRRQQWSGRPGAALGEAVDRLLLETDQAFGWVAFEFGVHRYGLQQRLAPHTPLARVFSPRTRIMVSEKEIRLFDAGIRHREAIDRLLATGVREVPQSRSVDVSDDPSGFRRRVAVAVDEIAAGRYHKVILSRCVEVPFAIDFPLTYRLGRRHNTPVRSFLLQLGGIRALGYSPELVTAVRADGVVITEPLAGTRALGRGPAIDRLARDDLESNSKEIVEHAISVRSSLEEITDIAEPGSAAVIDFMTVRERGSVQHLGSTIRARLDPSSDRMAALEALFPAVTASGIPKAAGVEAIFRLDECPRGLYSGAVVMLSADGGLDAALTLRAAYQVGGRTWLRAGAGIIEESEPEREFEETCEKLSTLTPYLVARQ
Polio RdRp inh intensity – recorded beside Polio RdRp inh, whose call it bears; % elongation; measured here: total intensity read-out; formula for this scale not given here;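 total fluorescence in place of polarization; lower means less elongation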
* hit, by the source's call; i = inactive; nt = no result given.

SMILES | Mtb MenB inh | Polio RdRp inh | Polio RdRp inh intensity | MbtI inh
O=C(OCC(=O)N1CCCCC1)c1ccc(O)cc1 | nt | 102 | 105 | 7
CC1CCCCC1NC(=O)c1ccc(CS(=O)(=O)c2cccc(C(F)(F)F)c2)o1 (stereo not given) | -33 | 98 | 101 | 5
COc1cccc(CC(=O)Nc2cccc(OC)c2)c1 | 2 | 100 | 106 | -7
O=C(NCc1ccccc1)c1nc[nH]c1C(=O)NCc1ccccc1 | -15 | 100 | 103 | -25
CC1(C)CC(=O)C/C(=N\NC(=O)CCC(=O)Nc2ccccc2)C1 | -25 | 99 | 100 | 6
CCCC(=O)c1cc(-c2nc3ccccc3n2C)n(C)c1 | -19 | 103 | 103 | -36
Cc1ccc(NC(=O)CSC(C)C(=O)O)cc1 (stereo not given) | 7 | 103 | 108 | -21
O=C1C=C(Nc2ccc3c(c2)OCO3)CC2(CCCCC2)C1 | -12 | 97 | 108 | 14
Cc1[nH]nc2c1C1(C(=O)N(C)c3ccccc31)C(C#N)=C(N)O2 (stereo not given) | -17 | 100 | 101 | -9
O=C(CSc1ncccn1)N/N=C/c1ccc2c(c1)OCO2 | -23 | 103 | 99 | 5
Cc1c(-c2nnnn2-c2ccc(F)cc2)cnc2cc3c(cc12)OCO3 | 11 | 105 | 113 | 0
CCOC(=O)c1c(C)[nH]c(C(=O)CN2C(=O)CCC2=O)c1C | -21 | 104 | 103 | 17
CN(Cc1cccs1)C(=O)C1CC(=O)N(c2ccc3c(c2)OCCO3)C1 (stereo not given) | 2 | 106 | 108 | -12
COc1ccccc1/C=C/C=NN1CCN(Cc2ccccc2)CC1 | -1 | 102 | 103 | -6
CCOC(=O)c1c(N)sc2c1CCCS2 | -47 | 64* | 74* | 70*
O=C(N[C@@H](CO)[C@H](O)c1ccc([N+](=O)[O-])cc1)C(Cl)Cl | -5 | 101 | 99 | -15
NNc1nc2ccc(Cl)cc2s1 | 3 | 99 | 106 | 38
O=C(NCC1CC1)Nc1ccc(Cl)cc1 | -1 | 100 | 95 | 26
COc1ccc(N(C(=O)C(F)(F)F)C(C(=O)NC2CCCCC2)c2ccc(C)o2)cc1 (stereo not given) | -11 | 104 | 104 | nt
CCCOc1ccc(CN(CCC)C(=S)NC)cc1OC | -10 | 102 | 103 | 2
Fc1ccc(-c2nc3ncccc3o2)cc1 | -8 | 102 | 101 | i
Cc1noc(C)c1COc1cccc(C(=O)N2CCC(C(N)=O)CC2)c1 | -7 | 104 | 108 | 14
O=C(O)C1Cc2ccccc2O1 (stereo not given) | 3 | 97 | 105 | -2
COC(=O)c1cc2nc3c(c(C(F)(F)F)n2n1)CCc1ccccc1-3 | 12 | 102 | 102 | -1
O=C(Nc1ccc(Cl)cc1)N1CCC(c2nc(-c3ccc(F)cc3)no2)CC1 | -7 | 100 | 102 | 8
O=C(COc1ccccc1)c1c[nH]c2ccccc12 | -13 | 100 | 163 | -2
O=C(NCCN1CCOCC1)c1n[nH]c(=O)c2ccccc12 | -4 | 104 | 104 | 6
CCNCC(=O)Nc1ccc2c(c1)OCCO2 | -19 | 106 | 104 | -9
CCOc1cc(C=C2C(=O)NC(=S)NC2=O)cc(Br)c1OCc1ccc(Cl)cc1 | -39 | 100 | 103 | 14
C=CCN1C(=O)S/C(=C\c2cn(CC(=O)N3CCOCC3)c3ccccc23)C1=O | -73 | 102 | 105 | -3
Cc1onc(-c2ccccc2)c1C(=O)c1ccc(F)cc1 | 4 | 100 | 102 | 0
Cn1nc(N)c2c1N=P(N1CCOCC1)(N1CCOCC1)N=C2c1ccccc1 | -18 | 107 | 110 | 11
CN1CCC(N(C)CC(O)COc2ccccc2-c2ccccc2)CC1 (stereo not given) | nt | 102 | 97 | -5
O=C(O)c1cccc(S(=O)(=O)Nc2ccc(O)cc2)c1 | -21 | 103 | 103 | 4
COc1ccccc1NC(=O)Cc1noc(COC(=O)c2c(F)cccc2Cl)n1 | -24 | 100 | 106 | -4
Cc1nc(=O)c(-c2ccccc2)c(C)n1-c1cccc(/C=C/C(=O)O)c1 | nt | 101 | 106 | -9
N/C(=N\c1nc(=O)c2ccccc2s1)NC(=O)c1ccc(Cl)c(Cl)c1 | 6 | 101 | 105 | -3
COc1ccccc1CN(C)C(=O)CSc1nc2sccc2c(=O)n1C | -9 | 99 | 97 | 7
O=C(OCc1c(F)cccc1Cl)c1ccco1 | 2 | 101 | 102 | 5
CCN(CC)CC(=O)N1CCCC1=O | 43* | 100 | 100 | 0
N#Cc1ccc(COC(=O)c2cccnc2Cl)cc1 | nt | 102 | 108 | -1
CN=C(Nc1ccc(Cl)c(Cl)c1)c1ccco1 | -6 | 101 | 98 | 1
O=C1CC(N2CCN(S(=O)(=O)c3cccs3)CC2)C(=O)N1CCc1ccccc1 (stereo not given) | 7 | 99 | 100 | 34
O=S(=O)(Nc1nnc(-c2ccc(Cl)cc2)o1)c1ccc2c(c1)OCCO2 | -11 | 99 | 102 | -125
COc1ccc(-c2nc3cnccn3c2NCc2ccc3c(c2)OCO3)cc1CN1CCOCC1 | -44 | 103 | 111 | 12

14 entries from above in a different format.
| compound | Mtb MenB inh | Polio RdRp inh | Polio RdRp inh intensity | MbtI inh |
| --- | --- | --- | --- | --- |
| O=C(OCC(=O)N1CCCCC1)c1ccc(O)cc1 | nt | 102 | 105 | 7 |
| CC1CCCCC1NC(=O)c1ccc(CS(=O)(=O)c2cccc(C(F)(F)F)c2)o1 (stereo not given) | -33 | 98 | 101 | 5 |
| COc1cccc(CC(=O)Nc2cccc(OC)c2)c1 | 2 | 100 | 106 | -7 |
| O=C(NCc1ccccc1)c1nc[nH]c1C(=O)NCc1ccccc1 | -15 | 100 | 103 | -25 |
| CC1(C)CC(=O)C/C(=N\NC(=O)CCC(=O)Nc2ccccc2)C1 | -25 | 99 | 100 | 6 |
| CCCC(=O)c1cc(-c2nc3ccccc3n2C)n(C)c1 | -19 | 103 | 103 | -36 |
| Cc1ccc(NC(=O)CSC(C)C(=O)O)cc1 (stereo not given) | 7 | 103 | 108 | -21 |
| O=C1C=C(Nc2ccc3c(c2)OCO3)CC2(CCCCC2)C1 | -12 | 97 | 108 | 14 |
| Cc1[nH]nc2c1C1(C(=O)N(C)c3ccccc31)C(C#N)=C(N)O2 (stereo not given) | -17 | 100 | 101 | -9 |
| O=C(CSc1ncccn1)N/N=C/c1ccc2c(c1)OCO2 | -23 | 103 | 99 | 5 |
| Cc1c(-c2nnnn2-c2ccc(F)cc2)cnc2cc3c(cc12)OCO3 | 11 | 105 | 113 | 0 |
| CCOC(=O)c1c(C)[nH]c(C(=O)CN2C(=O)CCC2=O)c1C | -21 | 104 | 103 | 17 |
| CN(Cc1cccs1)C(=O)C1CC(=O)N(c2ccc3c(c2)OCCO3)C1 (stereo not given) | 2 | 106 | 108 | -12 |
| COc1ccccc1/C=C/C=NN1CCN(Cc2ccccc2)CC1 | -1 | 102 | 103 | -6 |

(next part)
SMILES | Mtb MenB inh | Polio RdRp inh | Polio RdRp inh intensity | MbtI inh
CC(C)n1nc(C(C)(C)C)cc1C(C)(C)C | -39 | 107 | 98 | -3
Fc1cc2c(c(CSc3ccc(Cl)cc3)c1)OCOC2 | -19 | 105 | 110 | -9
CCN=c1scc(C)n1/N=C/c1cccs1 | -168 | 110 | 113 | -3
CC(C)(C)OC(=O)N1C(N)=C(C#N)C2(CCOCC2)c2[nH]c(C(F)(F)F)nc21 | -19 | 105 | 108 | nt
COc1ccc(-c2ccnc(SCc3ccc(Cl)cc3Cl)n2)cc1 | 0 | 98 | 107 | -16
C=C1/C(=N/O)CC2CC1C2(C)C (stereo not given) | 15 | 99 | 104 | -18
O=C(Nc1nc(-c2cccs2)cs1)C1CC(=O)N(c2ccc3c(c2)OCCO3)C1 (stereo not given) | -6 | 101 | 104 | 0
CC12CCC(=O)N1C(C(=O)NCC13CC4CC(CC(C4)C1)C3)CS2 (stereo not given) | -21 | 100 | 113 | 8
COc1ccccc1NC1CC(=O)N(c2cccc(Cl)c2)C1=O (stereo not given) | -10 | 102 | 107 | 5
O=C1OCCC1OC(=O)C1(c2ccc(Cl)cc2)CCCC1 (stereo not given) | nt | 100 | 96 | 0
CC(=O)Oc1ccc(-c2coc3cc(OC(C)=O)cc(OC(C)=O)c3c2=O)cc1 | -15 | 106 | 104 | -3
O=C(NCCc1ccc(Cl)cc1)c1cnn(-c2ccc(Cl)cc2)c1C(F)(F)F | -32 | 102 | 102 | -11
CCC(C)c1ccc(NC(=O)COC(=O)/C=C/c2cccs2)cc1 (stereo not given) | nt | 102 | 106 | -9
O=C(Nc1ccc(Br)cn1)Nc1ccccc1C(F)(F)F | -9 | 99 | 102 | -2
COc1ccccc1C(=O)NNc1ncccc1C(F)(F)F | -23 | 101 | 100 | 5
O=C(O)CCc1n[nH]c(=S)[nH]c1=O | 11 | 99 | 107 | -1
O=S(=O)(NC1CCCC1)c1ccc(-n2cnnn2)cc1 | 21 | 101 | 102 | 3
NC(=NC(=O)c1ccc(Cl)cc1)N1N=CCC1c1ccccc1 (stereo not given) | -26 | 101 | 104 | -20
O=C(CSc1nnc(C2CC2)n1C1CC1)c1ccc(CC(=O)N2CCOCC2)s1 | -16 | 110 | 111 | -8
COCCNC(=O)C1CCC(C(=O)NCCOC)CC1 (stereo not given) | -9 | 101 | 102 | -9
COc1ccc2nc(SC/C(O)=C(\C#N)C(=O)NCc3ccccc3)[nH]c2c1 | -5 | 104 | 110 | 45
COc1ccc2c(=O)c(-c3ccc(OC)c(OC)c3)coc2c1 | -5 | 107 | 112 | nt
CC(C)c1ccc(NC(=O)C2CC(=O)Nc3nc4ccccc4n32)cc1 (stereo not given) | -3 | 101 | 102 | -9
COc1ccc(CNC(=O)C2CCN(S(C)(=O)=O)CC2)cc1 | 3 | 101 | 107 | -7
COc1ccc(C2CC(c3ccccc3)=NN2C(=O)Cn2c(NCCO)nc3ccccc32)cc1 (stereo not given) | -27 | 100 | 98 | -11
CCc1ccc(NC(=O)c2ccccc2)cc1 | 13 | 101 | 101 | 11
CC(C)c1ccc(NC(=O)c2cc(S(=O)(=O)N3CCCC3)cn2C)cc1 | -10 | 102 | 101 | -5
Cc1ccc(C(=O)Nc2ccc(-c3nc4cc(C)ccc4o3)cc2)cc1 | -8 | 102 | 102 | 6
CC(=O)NCCC(=O)Nc1ccc(F)cc1C | 3 | 102 | 105 | 2
CCOC(=O)c1cc(C(=O)OC)c(C)nc1SCC(=O)OC | -5 | 104 | 105 | -11
NC(=S)NC12CC3CC(CC(C3)C1)C2 | -52 | nt | nt | 2
O=C(NC(=S)NCc1ccco1)c1ccc(Cl)cc1 | -1 | 101 | 103 | -1
N#CC(C(=O)C(F)(F)F)c1ccccc1 (stereo not given) | -9 | 100 | 102 | 8
CCCCN1CCC1C(=O)OC (stereo not given) | nt | 98 | 105 | -9
CC1=CC(C)(C)NC(=S)N1c1ccccc1 | 11 | 100 | 104 | 4
CN1N=C2c3ccccc3CCC2C1c1ccc(F)cc1 (stereo not given) | 0 | 102 | 99 | 0
CCN(CC)P1(=O)OC(c2ccc(F)cc2)=Nc2c1c(C)nn2-c1ccccc1 (stereo not given) | -29 | 103 | 99 | 2
CCc1cc(=O)oc2c(C)c(O)ccc12 | -19 | 102 | 106 | 108
O=C(CSc1nnc(CNC(=O)c2c(F)cccc2Cl)o1)NC1CCCCC1 | -3 | 103 | 102 | -7
C=CCOc1ccc(CNn2nnnc2N)cc1 | -4 | 103 | 112 | nt
CCn1c(CCC(=O)Nc2nc3ccccc3[nH]2)nc2cc(S(=O)(=O)N(C)C)ccc21 | 1 | 98 | 106 | -9
NS(=O)(=O)c1ccc(NC(=S)NC2CCCCC2)cc1 | 5 | 100 | 103 | -7
Cc1ccc(CNC(=O)c2oc3ccc(S(=O)(=O)N4CCCC4)cc3c2C)cc1 | -18 | 102 | 103 | -6
COc1cccc(Cn2ccn(Cc3ccccc3)c(=O)c2=O)c1 | -15 | 105 | 103 | 13
N#Cc1ccccc1OCC(=O)O | nt | 100 | 107 | -6
Clc1cccc(Cl)c1Cn1nnc(-c2ccccc2)n1 | -1 | 101 | 103 | nt
O=C(O)/C=C/C(=O)N1CCN(Cc2ccccc2)CC1 | -10 | 101 | 106 | -18
c1ccc(-c2nn3cnnc3c3ccccc23)cc1 | -11 | 98 | 101 | 13
O=C(NCC1CC1)Nc1ccccc1 | 9 | 109 | 111 | -18
O=C(c1cccc(S(=O)(=O)N2CCCCC2)c1)N1CCCCC1 | -3 | 106 | 111 | nt
Cc1cccc(C2=NN3C(=N)/C(=C\c4ccc5c(c4)OCO5)C(=O)N=C3S2)c1 | -66 | 100 | 105 | -28
O=C(c1cc(Cl)c2c(c1)OCO2)N1CCCSc2ccccc21 | -17 | 106 | 112 | -7
CCc1ccc(NC(=O)C(C)N2C(=O)c3ccccc3C2=O)cc1 (stereo not given) | 6 | 100 | 98 | 7
C/C=C1/CN2CCC34C(=C(C(=O)OC)C1CC23)Nc1c(O)cccc14 (stereo not given) | -4 | 101 | 103 | -6
CS(=O)(=O)NC1CC(=O)N(c2cccc(F)c2)C1 (stereo not given) | -30 | 103 | 108 | -12
CCOC(=O)c1ccc(NCn2c(=O)oc3ccccc32)cc1 | -44 | 100 | 107 | -5
Cc1ccc(-c2nnn(CC(=O)N(c3ccccc3)C(C(=O)NCc3ccccc3)c3ccncc3)n2)o1 (stereo not given) | 12 | 99 | 100 | -8
COC(=O)/C(C(C)=N)=C(\O)CSc1ccc(Cl)cc1 | -21 | 101 | 107 | 21
